ClpP mod – qHTS Assay for Activators of ClpP; hit rate 1.9% among 340,000; Potency, µM (top dose mostly 57.5 µM), without a hit: at the highest dose activity change, negative = active; purified B. subtilis ClpP, FRET peptide cleavage, 20 min; ATP-dependent Clp protease proteolytic subunit (Bacillus subtilis (strain 168)), P80244; active = well fitted falling curve with a large enough effect; inconclusive = small, poorly fitted or top-dose-only effect; inactive = no such curve, though single readings can be large or run the other way; further: the source files actives as falling curves though it sought activators and does not explain the sign; nearly all actives have a fitted effect of over 65% in size; many hits overshoot -100%
Target sequence (P80244 whole entry, looked up): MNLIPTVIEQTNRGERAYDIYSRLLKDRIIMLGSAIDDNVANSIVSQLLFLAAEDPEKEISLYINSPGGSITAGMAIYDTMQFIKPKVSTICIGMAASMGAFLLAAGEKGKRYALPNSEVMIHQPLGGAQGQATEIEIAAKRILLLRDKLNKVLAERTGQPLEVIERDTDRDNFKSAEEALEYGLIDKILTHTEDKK
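ClpP 10 microg/mL final, pH 8 Tris/KCl buffer with BSA, glycerol, Tween-20; compound pinned in; FRET-FV substrate; RT 20 min; Ex320/Em430; ΔFRET vs ADEP 5.8 microM, DMSO, no enzyme.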
Numbers without * were called inactive; ? = inconclusive; ! = a repeat was not active. Potency means the concentration at half of the fitted maximal effect.

SMILES | ClpP mod
CCCCOCCCNC(=O)C[C@@H]1C[C@@]2(C(=O)OC)CCCCC=C2N(Cc2ccccc2)C1=O | 2.5%
COc1ccc(S(=O)(=O)N2CCN(c3nc(-c4cccs4)nc4ccccc34)CC2)cc1 | 28.2µM*!
COc1ccc(-n2nc(-c3ccc(C)cc3)c3cnc4cc(F)c(F)cc4c32)cc1 | 4.1%
Cc1ccc(S(=O)(=O)CC(=O)Nc2nc3c(C)cccc3s2)cc1 | -2.5%
CCOc1cc(-c2nc(-c3ccc(-c4ccc(C)cc4)nc3OC)no2)cc(OCC)c1OCC | 17.3%
COc1ccc(C2c3c(oc4ccc(Cl)cc4c3=O)C(=O)N2CCCN(C)C)cc1OC (centres undefined) | -28.6%
COc1cccc(CNC(=O)c2ccc3nc(-c4ccc(F)cc4)c(-c4ccc(F)cc4)nc3c2)c1 | 3.8%
COCCNC(=O)CN1C(=O)c2cccnc2Sc2ccccc21 | -2.2%
CC(=O)N1c2ccccc2CC1C(=O)N1CCN(c2cccc(C)c2C)CC1 (centres undefined) | 3.0%
Cc1ccc(-c2nc3sccn3c2Nc2ccc(C)c(C)c2)cc1 | -3.5%
COc1cccc(C(=O)NCCc2csc3nc(-c4ccccc4F)nn23)c1OC | -6.8%
COc1ccccc1OCCCCn1c(C2CC(=O)N(c3ccccc3Cl)C2)nc2ccccc21 (centres undefined) | 0.7%
COc1cccc(-c2nc(SCC(=O)Nc3ccc4c(c3)OCCO4)c(-c3ccccc3)[nH]2)c1 | -18.0%
Cc1cccc(C(=O)Nc2ccc(S(=O)(=O)N(Cc3ccccc3)c3ccccc3)cc2)c1 | ?
COC(=O)c1sc2cccc(F)c2c1S(=O)(=O)Nc1cc(OC)cc(OC)c1 | 0.2%
O=C(CSc1nc2ccccc2nc1Cc1ccccc1)N1CCc2ccccc21 | 0.2%
Fc1ccccc1Cn1c(-c2ccccc2)nc2ccccc21 | -16.9%
COc1ccc(NC(=O)CCN2CCN(CCO)CC2)c(OC)c1 | 1.4%
Cn1c(=O)oc2cc(S(=O)(=O)N3CCC(C(=O)N4CCN(c5ccccc5F)CC4)CC3)ccc21 | 0.3%
Cc1cnc(=O)[nH]c1SCC(=O)Nc1nc2ccccc2s1 | -6.0%
Cc1ccccc1CNC(=O)c1cnc2sc(N3CCOCC3)nn2c1=O | ?
COc1cc(C(=O)Nc2cc(C)ccc2OCc2cc(=O)n3c(C)csc3n2)cc(OC)c1OC | -29.1%
CCOC(=O)c1c(-c2ccc(Br)cc2)csc1NC(=O)c1ccc(C(C)(C)C)cc1 | ?
O=C(NCC1CC1)c1cc2c(c(-c3cccc(-c4ccccc4F)c3)n1)[C@H](CCO)N(C(=O)CC1CC1)C2 | -4.7%
COc1ccc(-c2cc(C(F)(F)F)nc(SCCC(=O)Nc3cc(C)ccc3O)n2)cc1 | -22.0%
O=C(Cn1ncc2c3ccccc3n(Cc3ccccc3F)c2c1=O)N1CCCCC1 | -8.7%
Cc1ccccc1Cn1c(C)c(CNCCCc2ccccc2)c(C(=O)O)c1C | 0.4%
O=C(O[C@H]1[C@H](Cc2ccccc2)NS(=O)(=O)[C@H]2C[C@@H]3C=C[C@]12O3)c1ccccc1Br | 2.0%
COc1ccc(NC(=O)c2cc3c(=O)n(Cc4cccnc4)ccc3nc2C)cc1Cl | 21.4%
CCN(CC)c1nn2c(=O)c(C(=O)NCCc3ccccc3C)cnc2s1 | 3.98µM*

The closing 7 entries of the section above lead into the next.
SMILES | ClpP mod
O=C(NCC1CC1)c1cc2c(c(-c3cccc(-c4ccccc4F)c3)n1)[C@H](CCO)N(C(=O)CC1CC1)C2 | -4.7%
COc1ccc(-c2cc(C(F)(F)F)nc(SCCC(=O)Nc3cc(C)ccc3O)n2)cc1 | -22.0%
O=C(Cn1ncc2c3ccccc3n(Cc3ccccc3F)c2c1=O)N1CCCCC1 | -8.7%
Cc1ccccc1Cn1c(C)c(CNCCCc2ccccc2)c(C(=O)O)c1C | 0.4%
O=C(O[C@H]1[C@H](Cc2ccccc2)NS(=O)(=O)[C@H]2C[C@@H]3C=C[C@]12O3)c1ccccc1Br | 2.0%
COc1ccc(NC(=O)c2cc3c(=O)n(Cc4cccnc4)ccc3nc2C)cc1Cl | 21.4%
CCN(CC)c1nn2c(=O)c(C(=O)NCCc3ccccc3C)cnc2s1 | 3.98µM*
COc1c(Cl)cc(C(=O)N(Cc2ccc(C)o2)C2CCS(=O)(=O)C2)cc1Cl (centres undefined) | -2.4%
COc1ccc(OC)c(NC(=O)CSC2=Nc3ccccc3C3=NC(CC(=O)NCCc4ccccc4)C(=O)N23)c1 (centres undefined) | -4.6%
COc1ccc(C)cc1Nc1nc2c(S(=O)(=O)c3cc(C)ccc3C)nnn2c2ccsc12 | -16.6%
CC(C)C[C@H]1CN([C@@H](Cc2ccc(O)cc2)CN2CCCC2CN2C(=S)NC[C@@H]2Cc2ccccc2)C(=S)N1CC1CCCCC1 (some centres undefined) | 0.7%
O=C(Cn1ccc2cc(S(=O)(=O)N3CCCCC3)ccc21)NCCc1ccc(Cl)cc1 | -15.4%
CCOc1ccc(-c2cn3c(n2)sc2cc(C(=O)NCCCN4CCCCCC4)ccc23)cc1 | -17.8%
Cc1cccc(-n2c3nc(=O)n(C)c(=O)c-3cc3c(C)nn(-c4ccccc4)c32)c1C | 3.6%
Cc1ccc2c(=O)c(C(=O)c3ccc(F)cc3)cn(CC(=O)NCc3ccccc3Cl)c2n1 | -0.1%
Cc1ccc(N(CC(C)C)S(=O)(=O)c2nnc(NC(=O)c3ccco3)s2)cc1 | -8.1%
Cn1cc(S(=O)(=O)N2CCCC2)cc1C(=O)Nc1ccc(F)cc1F | -3.7%
Cc1ccc(NC(=O)CCc2nc3cccnc3n2-c2ccccc2)cc1 | -1.6%
CC1CCN(C(=O)c2cc(-c3ccc(Br)cc3)on2)CC1 | -2.9%
CCC1CCc2nc3sc(C(=O)Nc4ccc(F)cc4F)c(N)c3cc2C1 (centres undefined) | -1.7%
COc1cc2ncnc(N3CCN(C(=O)Nc4ccc(Oc5ccccc5)cc4)CC3)c2cc1OC | -4.4%
COc1cc(OC)cc(-c2nc3nc(C)c(CCC(=O)NCCC(C)C)c(C)n3n2)c1 | -1.6%
COc1ccc(-c2oc3c(c2C#CC2(O)CCCCC2)C(OC)CCC3)cc1 (centres undefined) | 4.7%
COc1ccc(NC(=O)CCSc2nc(-c3ccco3)cc(C(F)(F)F)n2)cc1OC | 20.1%
Cc1cc(=O)c2cc(C(=O)Nc3cccc(C)c3C)ccc2[nH]1 | -14.8%
CN(C)c1ccc(C2CC(c3c(O)n(C4CCCCC4)c(=O)[nH]c3=O)=Nc3ccccc3S2)cc1 (centres undefined) | -5.8%
Cc1nc2ccccc2n1CCc1nc2c3ccccc3nc(SCc3cccc(F)c3)n2n1 | -0.6%
COc1ccc(Cl)cc1NC(=O)Cn1cnc2sc(C)c(S(=O)(=O)N3CCN(c4ccccc4OC)CC3)c2c1=O | 0.2%
CCc1nc(Oc2cccc(F)c2)c2oc3ccccc3c2n1 | -2.8%
CC(CCc1ccccc1)NC(=O)Cn1ncc2c3ccccc3n(Cc3ccccc3)c2c1=O (centres undefined) | 2.4%
CCCNC(=O)C(CC)n1nc(CC)n2c(cc3oc(C)cc32)c1=O (centres undefined) | -15.1%
CCOC(=O)[C@]12CCCC=C1N(Cc1ccccc1)C(=O)[C@H](CC(=O)NCc1ccc(C)o1)C2 | 2.4%
CCOc1ccc(-c2cc(C(=O)NCc3ccc(OCC)c(OC)c3)[nH]n2)cc1 | -0.6%
O=C(Nc1ccc(O)c(-c2nc3ccccc3o2)c1)c1ccco1 | 1.1%
CCCN(CCC)CCCNC(=O)Cn1ncn2c(cc3sc(CC)cc32)c1=O | -0.5%
O=C(Cn1c(=O)oc2cc(S(=O)(=O)N3CCCCCC3)ccc21)Nc1cccc(C(F)(F)F)c1 | 2.1%
Cc1ccc(CCNC(=O)CCn2nc(-c3ccccc3)ccc2=O)cc1 | -8.4%
COc1ccc(Cl)cc1NC(=O)CSc1nccn1-c1ccc(Cl)cc1 | -1.3%
CCOc1ccccc1NC(=O)NCc1noc2ccc(C)cc12 | 0.1%
O=C(CNC(=O)c1ccccc1)OCc1cc(=O)n2nc(C3CCCCC3)sc2n1 | -6.0%
O=C(Nc1nnc(-c2cc(Cl)ccc2Cl)o1)c1ccc2c(c1)OCCO2 | -1.8%
Cc1ccc(CSCCNC(=O)C2CCN(S(=O)(=O)Cc3ccccc3)CC2)cc1 | -2.9%
Cc1ccccc1C(=O)N1CCC(c2nc3ccccc3s2)CC1 | -0.1%
Cn1cc(S(=O)(=O)N2CCCCCC2)cc1C(=O)N1CCN(c2ccc(F)cc2)CC1 | 0.3%
COc1ccc(OC)c(NC(=O)c2cnc(N3CCCCC3)c3ccccc23)c1 | -12.7%
C=C[C@@H]1c2cc(C)ccc2N(S(=O)(=O)c2ccc(C)cc2)[C@H](c2ccc(C(=O)OC)cc2)C1(C#N)C#N | -3.0%
COc1ccc(C2=C(C)C(=O)N(Cc3ccc(C(=O)Nc4cccc(F)c4)cc3)S2(=O)=O)cc1 | 3.8%
O=C(CN1C(=O)COc2ccc(Cl)cc21)Nc1cccc(F)c1 | -6.7%
Cc1cc(Nc2sc(C(=O)c3ccc(F)cc3)c(N)c2C(=O)Nc2ccc(F)cc2)ccc1Cl | -0.5%
COc1cc(NC(=O)c2c3c(nc4ccccc24)C(=O)N(C2CCCCC2)C3)cc(OC)c1 | 0.8%
Cc1ccc(CNC(=O)CC2Oc3ccc(Cl)cc3NC2=O)cc1 (centres undefined) | -1.1%
O=C(Nc1ccc(F)c(F)c1)C(c1ccccc1)N1Cc2ccccc2C1=O (centres undefined) | -0.1%
CC(=O)N(Cc1cccnc1)c1nc2c(C)cccc2s1 | 0.1%
CCCCC(=O)Nc1nnc(S(=O)(=O)N(C)Cc2ccc(Cl)cc2)s1 | 1.1%
CCN(CC)c1ccc(NC(=O)c2sc3ccccc3c2Cl)cc1 | -0.4%
CCOC(=O)c1c(-c2ccccc2)oc2ccc(NS(=O)(=O)c3ccc(C)cc3C)cc12 | 4.2%
O=C1CC(c2ccc(F)cc2)c2c(n3c(nc4ccccc43)[nH]c2=O)N1 (centres undefined) | ?

Retrieved one by one from above, four records:
SMILES | ClpP mod
O=C(CN1C(=O)COc2ccc(Cl)cc21)Nc1cccc(F)c1 | -6.7%
Cc1ccc(CNC(=O)CC2Oc3ccc(Cl)cc3NC2=O)cc1 (centres undefined) | -1.1%
O=C(Nc1ccc(F)c(F)c1)C(c1ccccc1)N1Cc2ccccc2C1=O (centres undefined) | -0.1%
CCN(CC)c1ccc(NC(=O)c2sc3ccccc3c2Cl)cc1 | -0.4%

(cont.)
SMILES | ClpP mod
COc1cccc(Nc2ccc3cc(S(=O)(=O)N4CCC(C)CC4)ccc3n2)c1 | 5.0%
Cc1cccc(Nc2cc(C)nc(-n3nc(C)cc3C)n2)c1 | 0.7%
O=C(c1ccccc1)N1CCC(c2nc3ccccc3o2)CC1 | 1.5%
CN1C(=O)c2ccccc2Sc2ccc(NC(=O)NCc3cccc(Cl)c3)cc21 | 0.8%
Cc1ccc(C2=NN(CC(=O)NC(C)c3ccccc3)C(=O)CC2)cc1 (centres undefined) | -1.2%
Cc1cccc(NC(=O)CSc2nc3c(oc4ccccc43)c(=O)n2-c2ccccc2)c1C | -7.4%
Cc1cc(NC(=O)C(C)(C)Oc2ccc(Cl)cc2)cc(-c2nc3ncccc3o2)c1O | -0.6%
CCNC(=O)Cn1c(-c2cccs2)cc2ccccc21 | 28.2µM*
O=C(NCCc1nc2ccccc2n1Cc1ccccc1)c1ccco1 | 0.7%
COc1ccc(CCNC(=O)c2ccc3c(c2)CCN3S(=O)(=O)c2ccc(C)cc2)cc1OC | 9.8%
O=C(CSc1n[nH]c(-c2ccccc2)n1)NCCc1ccccc1 | 0.3%
O=C(OC1CC2CC1[C@H]1CCCCN1C2=O)N1CCOCC1 (some centres undefined) | 1.1%
Cc1cc2nc(-c3cccc(Br)c3)c(CC3CCCCC3)n2c(C)c1Br | 1.5%
Brc1cccc[n+]1Cc1ccc(C[n+]2ccccc2Br)cc1 | -2.8%
COc1ccc2c(CNCc3cccs3)c(C(=O)O)n(Cc3ccccc3F)c2c1 | -15.9%
CCc1nn(CC(=O)N2CCCCC2)c(=O)c2cc3occc3n12 | -7.4%
Cc1cc(Nc2ccc(C(C)C)cc2)nc(-n2nc(C)cc2C)n1 | -10.6%
O=C(NCc1ccc(F)cc1)c1cc2n(n1)CCCN(Cc1ccc(F)cc1)C2=O | 0.1%
COC(=O)[C@@]12C[C@@H](CC(=O)NCc3cccc(C(F)(F)F)c3)C(=O)N(Cc3cccc4ccccc34)C1=CCC(C)(C)C2 | -2.7%
Cc1ccc(-c2cc(C(=O)N3CCN(S(=O)(=O)c4ccc(Br)cc4)CC3)[nH]n2)cc1C | 0.5%
O=C(NCCc1ccccc1)C1CCC(CNS(=O)(=O)c2ccc(Cl)cc2)CC1 (centres undefined) | -1.1%
O=C(NNc1cc(Cl)cc(Cl)c1)c1sccc1Cl | 0.8%
CCOc1ccc(NC(=O)CSc2nnc3c(C)cc4ccccc4n23)cc1 | 0.7%
Cc1cc2ccccc2n1-c1ccc(C(=O)N2CCCCC2)s1 | 0.0%
COc1cccc(N2CC(NC(=O)c3ccc(S(=O)(=O)N4CCCC4)cc3)CC2=O)c1 (centres undefined) | -0.8%
O=C(Nc1ccc2ccccc2c1)C(c1ccc(C(F)(F)F)cc1)n1c(=O)c(-c2cc3ccccc3[nH]2)nc2ccccc21 (centres undefined) | 25.7%
C=CCOC(=O)Nc1nc(CCNC(=O)OC(C)(C)C)c(C(=O)O)s1 | 0.2%
CCN1c2ccccc2-c2nc(SCC(=O)Nc3cccc(C(F)(F)F)c3)ncc2S1(=O)=O | 3.9%
O=C(CSc1nccn1-c1ccccc1)Nc1nc2ccccc2s1 | -2.2%
CCN(CC)CCCNC(=O)CCCn1c(=O)[nH]c2ccc(Br)cc2c1=O | -3.6%

A portion of the library, so the mix of outcomes need not match the whole.
